High-throughput results: PubChem BioAssay, National Center for Advancing Translational Sciences (NCATS)
VDR inh = blocks the human vitamin D receptor | P11473 | VDR-SRC2-3 peptide fluorescence polarization, 2 h | Potency, µM, for inactives: max response, negative = inhibition, actives largely listed as inhibitors | 400,000 tested, 0.93% active; active = well fitted inhibition curve with a large enough effect; inconclusive = small, poorly fitted or top-dose-only effect, or another doubt; inactive = no such curve, though single readings can be large or run the other way; also: series mostly up to about 120 µM
Target sequence (P11473 whole entry, looked up): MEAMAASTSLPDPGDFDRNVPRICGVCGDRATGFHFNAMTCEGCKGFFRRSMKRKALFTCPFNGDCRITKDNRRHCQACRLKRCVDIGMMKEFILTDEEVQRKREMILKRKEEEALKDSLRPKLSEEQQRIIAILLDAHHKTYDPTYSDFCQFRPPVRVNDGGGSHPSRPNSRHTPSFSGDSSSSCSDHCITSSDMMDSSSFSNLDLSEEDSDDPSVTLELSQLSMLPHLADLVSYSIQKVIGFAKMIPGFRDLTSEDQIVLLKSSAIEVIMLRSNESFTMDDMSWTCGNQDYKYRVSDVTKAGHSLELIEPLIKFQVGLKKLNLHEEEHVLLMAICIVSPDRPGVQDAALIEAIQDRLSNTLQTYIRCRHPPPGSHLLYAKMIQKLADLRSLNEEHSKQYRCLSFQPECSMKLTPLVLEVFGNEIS
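Fluorescence polarization assay of small-molecule disruption of VDR binding to coregulator peptide SRC2-3. Compounds and controls pin-transferred, then read after 2 h incubation at ambient room temperature.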
Active calls of the source: *; u = inconclusive; & = joins results of further samples; [ ] = remark or other dose. % is scaled to controls: 0 for no effect and ±100 for the full control effect; potency is read from the fitted curve at half-maximal effect.

smiles | VDR inh
CN(C)NC(=O)C12CCC(C)(C(=O)O1)C2(C)C (centres undefined) | -28%
CCOC(=O)c1[nH]c2ccccc2c1NC(=O)c1nonc1C | -3%
COc1ccc(CCNC(=S)Nc2ccccc2C)cc1 | 5%
Cc1ccc(S(=O)(=O)NCCSc2nnnn2-c2ccc(C(N)=O)cc2)cc1 | 0%
OCCN1CCN(CCSc2ccccc2)CC1 | -13%
Cc1cc(NC(=O)c2ccc(N3C(=O)CCC3=O)cc2)no1 | -9%
OC(COc1ccc(CNCc2cccnc2)cc1)CN1CCc2ccccc2C1 (centres undefined) | 22%
COc1cc2c(C)nc3c(cnn3-c3ccccc3)c2cc1OC | -11%
COc1ccc(O)c(/C=N/N=C2/C(=O)Nc3ccccc32)c1 | 3%
Cc1cccc(-n2c(C)c(C)c3c(N)ncnc32)c1 | 2%
CCCCCCOc1ccc(N2C(=O)CC(N3CCN(CCN=CC4=C(O)CC(C)(C)CC4=O)CC3)C2=O)cc1 (centres undefined) | 8%
C=CCn1c(SCC(=O)Nc2ccc(C(=O)OC(C)C)cc2)nnc1-c1cccs1 | 4%
CS(=O)(=O)Nc1ccccc1C(=O)NCCSCc1ccccc1 | -8%
O=C(COc1ccc(Br)cc1CNC1CCCC1)Nc1ccccc1 | 0%
CN(C)C(=O)c1cc([N+](=O)[O-])ccc1O | -6%
CC(C)CN1CCN(Cc2cccn2-c2ccc(Cl)cn2)CC1CCO (centres undefined) | -1%
O=C(C1CCCN(S(=O)(=O)c2ccc(Br)s2)C1)N1CCN(c2ccc(F)cc2)CC1 (centres undefined) | 6%
O=C(Nc1c2c(nn1-c1ccc(F)cc1)CS(=O)C2)c1ccc(Br)o1 (centres undefined) | 5%
CCOC(=O)C1CCCN(c2c(NCCc3ccc(S(N)(=O)=O)cc3)c(=O)c2=O)C1 (centres undefined) | -22%
Clc1ccc(CNCC2CCCO2)cc1 (centres undefined) | -4%
N#Cc1ccc(Oc2ccc(-c3cnc4ccccc4n3)cc2)cc1C#N | 5%
CN(Cc1ccc(Br)cc1)C(=O)CCN1C(=O)c2cccc([N+](=O)[O-])c2C1=O | 10%
Cc1ccc(Cc2nc3ccccc3nc2SCC(=O)Nc2cccc(C(F)(F)F)c2)cc1 | 0%
Cc1cccc(C)c1Nc1nnc(SCC(=O)NC(=O)c2cccn2C)s1 | -11%
O=C(O)CONC(=O)c1cc(OCC(F)(F)F)ccc1OCC(F)(F)F | 10%
CN(C)S(=O)(=O)c1ccc(C(=O)OCC(=O)Nc2ccc3c(c2)OCO3)cc1 | 22%
CCOC(=O)CSc1nc2ccccc2c(=O)n1CCN1CCOCC1 | 20%
COc1ccccc1CNC(=O)c1ccc(CS(=O)(=O)c2ccccc2C)o1 | 1%&-14%
CC(CCc1ccc(O)cc1)NCC(O)c1ccc(O)cc1 (centres undefined) | 0%
Cc1ccnc(NC(=O)C2CCCN(c3ncnc4c3nc3n4CCCCC3)C2)c1 (centres undefined) | 7%
CSc1nc(NCc2ccco2)c2sc3nc(C(C)C)c4c(c3c2n1)CC(C)(C)OC4 | 3%
CCOC(=O)c1c(NC(=O)CSc2nnc(CN3CCOCC3)n2C)sc2c1CCCC2 | 9%
c1cc(CNC23CC4CC(CC(C4)C2)C3)ccn1 | 9%
CCN(CC)c1ccc(NC(=O)CSc2nc(C)cc(=O)[nH]2)cc1 | -10%
Cc1cccc(-c2noc(Cc3ccc(Cl)cc3)n2)c1 | u
O=C(Nc1ccc(NC(=O)C2CC2)cc1)c1cccs1 | -3%
O=C(NNC(=O)c1cnccn1)c1ccc(Cl)c(Cl)c1 | 6%
O=C(CN1C(=O)NC2(CCOc3ccccc32)C1=O)Nc1cccc([N+](=O)[O-])c1 (centres undefined) | -14%
NC(=O)c1ccsc1NC(=O)CCc1ccccc1 | -19%
Cc1nc2cnc(N(C)C)nc2n(-c2ccccc2)c1=O | -1%
COc1ccc(NC(=O)COc2ccccc2Cc2ccccc2)cc1S(=O)(=O)N1CCOCC1 | -7%
CSc1ccc(CN(C)C(=O)c2cc(Cl)c3c(c2)OCCO3)cc1 | 13%
CCN1C(=O)N(C)[C@@H](c2ccccc2)C(C(C)=O)=C1C | -11%
Cc1ccc(-c2csc(NC(=O)C3=COCCO3)n2)cc1C | 6%
COc1ccccc1CNS(=O)(=O)c1ccc2c(c1)CC(C)N2C(=O)C1CCC1 (centres undefined) | 0%&8%
Cc1ccc(C(C)C)cc1OCC(=O)Nc1nnc(C2CC2)s1 | 4%
O=S(=O)(c1ccc(Br)cc1)c1nc(-c2ccccc2)oc1NCc1cccnc1 | 14%
COC(=O)C1(O)CC(CC(C)C)=NN1C(=O)c1ccccc1 (centres undefined) | 6%
CC(C)c1ccc(OCC(=O)NC2=NCCS2)cc1 | -5%
COc1ccc(CNC(=O)Nc2cc(C)cc(C)c2)cc1 | -8%
O=C(Nc1ccc(Br)cc1)c1cnccn1 | 1%
Cc1cc(Br)ccc1OCCOCCN1CCCC1 | u
COC(=O)c1csc2c(C(F)(F)F)cc(N3CCN(C(=O)Nc4ccccc4)CC3)nc12 | 0%
CC(=O)c1ccc(S(=O)(=O)Nc2cccc(-c3cn4c(n3)SCC4)c2)cc1 | -1%
O=C(c1ncn[nH]1)N1CCN(c2nc(-c3ccccc3)cs2)CC1 | -8%
CC(=O)Nc1cccc(C(=O)NC2CCCc3c2cnn3-c2ccc(C(C)(C)C)cc2)c1 (centres undefined) | 5%
COc1ccccc1CNC(=O)COC(=O)c1c(C)nn(-c2ccccc2)c1Cl | 3%
CC(=O)c1cccc(NC(=O)C(C)OC(=O)CCc2nc3ccccc3c(=O)[nH]2)c1 (centres undefined) | -10%
O=C(COC(=O)c1cc(Br)ccc1Cl)NC(=O)NCc1ccccc1 | -19%
Cc1c(C(=O)N2CCCCC2)c(S(=O)(=O)NCc2ccccc2Cl)c(C)n1C | u

New compounds follow.
smiles | VDR inh
Cc1ccc(S(=O)(=O)N/N=C2/CC(=O)CC(C)(C)C2)cc1[N+](=O)[O-] | -6%
CN(C(=O)c1cccc(NC(=O)Cc2ccc(NC(=O)C3CCCN(C(=O)C4CCCCC4)C3)cc2)c1)C1CCCCC1 (centres undefined) | 5%
COCCCNC(=O)CSc1nc2ccccc2c(=O)n1CCCN1CCCCC1 | -10%
COc1cc(/C=N/NS(=O)(=O)c2ccc3ccccc3c2)ccc1OCc1ccc(C(=O)O)cc1 | 9%
O=C(Nc1ccccc1)c1[nH]ncc1[N+](=O)[O-] | -16%
COc1cccc(NC(=O)C(=O)NCC(c2ccc3c(c2)OCO3)N2CCN(C)CC2)c1 (centres undefined) | 12%
Cc1ccc(S(=O)(=O)NCCc2c[nH]c3ccccc23)cc1 | -23%
Cc1ccc(CNC(=O)CN2CCCC(C)C2)cc1 (centres undefined) | 6%
CN(C(=O)CSc1nnc(Cc2cccs2)n1C1CC1)C1CCS(=O)(=O)C1 (centres undefined) | -1%
CCC(NC(=O)NNC(N)=S)(C(F)(F)F)C(F)(F)F | -13%
COC(=O)c1[nH]c2ccccc2c1NC(=O)c1ccccc1F | 4%
O=C(NCc1ccccc1)C1=C[C@@H](c2ccc3c(c2)OCO3)C[C@@H](OCCCCO)O1 | -3%
CCOc1ccc(N(CC(=O)NC2CCC(C)CC2)S(=O)(=O)c2c(C)noc2C)cc1 (centres undefined) | 20%
Cc1cccc(/C=N/NC(=O)NC23CC4CC(CC(C4)C2)C3)n1 | 4%
COc1cc(CN2CCN(Cc3ccc(SC)cc3)CC2)cc(OC)c1O | 27%
Cc1c(C(=O)N2CCCC2)sc(NC(=O)c2ccco2)c1C#N | 32%[activator]
Cc1ccc(CC(CC(=O)Nc2cccc(C(F)(F)F)c2)C(=O)O)cc1 (centres undefined) | -7%
C=CCNC(=O)NC(=O)COC(=O)c1cccnc1SC | 14%
Cc1ccc(NCc2nnc3n2CCCCC3)cc1Cl | 9%
Cc1c([N+](=O)[O-])cc(C(=O)Nc2ccc(NC(=O)c3ccco3)cc2)cc1[N+](=O)[O-] | 0%
Cc1ccc(C2=Nc3ccccc3N=C(c3ccc([N+](=O)[O-])cc3)C2)c(O)c1 | -7%
C#CCOCCOCCOCCNc1nc(N2CCN(C(=O)CCCCCCCCCCNC(=O)[C@H]([C@@H](C)CC)n3cc(CCCCN=C(N)N)nn3)CC2)nc(N2CCN(C(=O)CCCCCCCCCCNC(=O)[C@@H]([C@H](C)O)n3cc(C)nn3)CC2)n1 | 84%[activator]
O=C(NCc1ccc2c(c1)OCO2)C12CC3CC(CC(C3)C1)C2 | -13%
CC(C)(C)N(Cc1ccccc1)C(=O)COC(=O)C1CC(=O)N(Cc2ccccc2)C1 (centres undefined) | -2%
COc1ccccc1N(CC(=O)NC1CCCCC1)C(=O)CCC(=O)Nc1nccs1 | -9%
O=S(=O)(C=C(c1ccccc1)c1ccccc1)c1ccccc1 | 1%
Cc1ccc(OCC(=O)NCC2(N3CCN(C)CC3)CCCCC2)cc1C | 2%
N#CCCN(C(=O)COC(=O)c1cccc(S(=O)(=O)Nc2ccc([N+](=O)[O-])cc2)c1)c1ccccc1 | -3%
CCCCCCCN1C/C=C\C(c2ccc(OC)cc2)N(Cc2ccc(F)cc2)C(=O)[C@H]1Cc1ccccc1 (some centres undefined) | 0%
CCOc1cc(CO)cc(Br)c1OCC(=O)Nc1ccccc1C | 4%

Another view of part of the listing above:
Cc1ccc(S(=O)(=O)NCCc2c[nH]c3ccccc23)cc1
  VDR inh: -23%

Cc1ccc(CNC(=O)CN2CCCC(C)C2)cc1 (centres undefined)
  VDR inh: 6%

CN(C(=O)CSc1nnc(Cc2cccs2)n1C1CC1)C1CCS(=O)(=O)C1 (centres undefined)
  VDR inh: -1%

CCC(NC(=O)NNC(N)=S)(C(F)(F)F)C(F)(F)F
  VDR inh: -13%

(more compounds)
smiles | VDR inh
Cc1cc(NC(=O)NC(C)(C(F)(F)F)C(F)(F)F)no1 | -10%
CO[C@H]1C=CO[C@]2(C)Oc3c(C)c(O)c4c(O)c(c5c(c4c3C2=O)NC2(CCN(CC(C)C)CC2)N=5)=NC(=O)C(C)=CC=C[C@@H](C)[C@@H](O)[C@@H](C)[C@@H](O)[C@@H](C)[C@@H](OC(C)=O)[C@@H]1C | -3%
Cc1ccc(C)c(-c2csc(N)c2C(=O)OC(C)C)c1 | 6%
O=C(COC(=O)c1ccccc1Cl)NC(=O)NCc1ccccc1 | -17%
O=C(O)c1ccc2cccc(Cl)c2c1O | -12%
CSCCC(NC(=O)c1ccccc1)C(=O)Nc1ccncc1 (centres undefined) | -7%
CCN(CC)CCOC(=O)c1ccc(NC(=O)c2cc3c(s2)-c2ccccc2OC3)cc1 | 20%
CCN(CC)C(=O)Oc1ccc(Cl)c2ccccc12 | 9%
CCCn1c(SCC(=O)N2CCCCC2)nc2c1c(=O)n(C)c(=O)n2C | 1%
Cc1cc(=O)oc(C)c1C(=O)NCC(C)C | -4%
CC(=O)c1ccc(N2CCN(C(=O)Nc3cccc(F)c3)CC2)cc1 | -2%&-1%
CCOCCCn1c(SCC(=O)N2CCOCC2)nc2ccccc2c1=O | 8%
Cc1cc(Oc2ccccc2)nc(N2CCOCC2)n1 | 11%
Cn1c(=O)[nH]c(=O)c2c1nc(CN1CCN(c3ccc(F)cc3)CC1)n2CCN1CCOCC1 | 3%
CCCCn1c(SCC(=O)Nc2nnc(C(C)C)s2)nc2c1c(=O)n(C)c(=O)n2C | -6%
CCOc1ccc(CCNC(=O)COC(=O)c2nn(C)c(=O)c3ccccc23)cc1OCC | 2%
COc1ccc(S(=O)(=O)Nc2ccc(NC(C)=O)cc2)cc1Cl | 0%
Cc1c(C(C)C)c(=O)n(-c2ccc(S(=O)(=O)NC(C)C)cc2)n1C | 9%
COc1ccc(C(=O)NCC(=O)OCC(=O)N2CCCc3ccccc32)cc1 | -17%
Cc1cc(NS(=O)(=O)c2ccc(NC(=S)NC(=O)c3cccc(S(=O)(=O)N(C)C)c3)cc2)no1 | -7%
COc1ccc(-c2noc(C(=O)NCc3ccc(F)cc3)n2)cc1OC | -12%
Cc1ccc(-c2ccc(=O)n(CC(=O)Nc3ccc(F)c(Cl)c3)n2)cc1C | 7%
CN1CCN(c2nc(-c3ccc(C(C)(C)C)cc3)nc3ccccc23)CC1 | -29%
c1ccc(-c2nn3c(Cn4nnc5ccccc54)nnc3s2)cc1 | -79%
O=c1c2ccccc2nnn1COc1ccc(F)cc1Cl | -5%
COc1cccc(Nc2ncc3nc(-c4ccc(F)cc4)c(=O)n(C[C@H]4CCCO4)c3n2)c1 | -1%
O=C(NCCNc1ccc([N+](=O)[O-])cc1)c1cccs1 | 0%
O=C(NC1CCCC1)c1ncn[nH]1 | -15%
CCOC(=O)c1cccc(NC(=O)COc2ccc([N+](=O)[O-])cc2)c1 | 7%
O=C(NCc1ccc(F)cc1)C1CCN(C(=O)c2cnn(-c3ccccc3)c2-n2cccc2)CC1 | 3%
O=C1c2ccccc2C(=O)N1CC1c2ccccc2CCN1C(=O)C1CCCCC1 (centres undefined) | -3%
COc1ccc(/C=N/NC(=O)c2cccc([N+](=O)[O-])c2)cc1OS(=O)(=O)c1ccccc1 | 18%
Cc1c(C#N)c2ccccc2n1CC(=O)N1CCCc2ccccc21 | -5%
Cn1nnnc1SCC(=O)Nc1cc(C(C)(C)C)nn1-c1ccccc1 | -7%

Look-ups from the list:
O=C(CN1C(=O)NC2(CCOc3ccccc32)C1=O)Nc1cccc([N+](=O)[O-])c1 (centres undefined) @ VDR inh = -14%
COc1cc(CN2CCN(Cc3ccc(SC)cc3)CC2)cc(OC)c1O @ VDR inh = 27%
CCN(CC)C(=O)Oc1ccc(Cl)c2ccccc12 @ VDR inh = 9%

An excerpt; the hit share may differ from the screen's.
